Bioassay records from PubChem BioAssay.
YopH PTP inh – YopH (Yersinia) phosphatase inhibition. fluorescence Ex485/Em525. inhibition, %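 (about 10 µM by stock and volumes)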. hit rate 0.16% among 140,000. AID 898;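 active means inhibition of 50% or more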;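 further: controls were vehicle for no effect and minimum signal wells for full effect; inactives centre near -20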
Mtb growth – M. tuberculosis H37Rv growth inhibitors, H37Rv strain (AID 1626); M. tuberculosis H37Rv growth inhibition; higher % means a stronger effect; inhibition, % at 10 µM; hits with a dose series show IC50 in µM; hit rate 0.95% among 220,000;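 active means confirmed in a dose series; inconclusive means inhibition above 80% but not taken into the dose series; inactive means below 80% or under 30% at every dose of the series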;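 further: bacteria incubated seven days before Alamar blue readout; 0% = bacteria only wells and 100% = bacteria with antibiotic wells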
Arbovirus anti – blocks arbovirus infection | arbovirus infection cell-based antiviral screen | inhibition, % at 10 µM | hit rate 0.37% among 200,000;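 active means inhibition from about 30%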;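 further: bluetongue infection of BSR cells; cell survival read as ATP light after 72 h; 0% = infected wells without compound and 100% = uninfected wells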
Mtb bLac sens – beta-lactam sensitization of Mtb H37Rv. M. tuberculosis H37Rv growth with meropenem, percent inhibition; hits of this screen are not shown here. inhibition, % at 25 µM. hit rate 0.27% among 330,000;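 active means about 74% or more and at least 40 points above the plate without the antibiotic, then above 30% in a dose series; inconclusive means first-round hits that could not be retested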;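 further: growth measured after seven days incubation then overnight dye step; 0% = bacteria only wells and 100% = bacteria with antibiotic; twin plates without the antibiotic show which effects depend on it; some results filed as inactive read as strong as hits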
RecA intein inh – Mtb RecA intein splicing inhibition. P9WHJ3. cell-free RecA intein splicing, fluorescence. inhibition, %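 (about 9 µM by stock and volumes)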. hit rate 0.75% among 290,000. AID 2221; in the data active means inhibition above about 30%; inconclusive means no clear call, values can overlap the other calls;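 further: 0% = vehicle wells and 100% = reference inhibitor control wells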
Target sequence (P9WHJ3 whole entry, looked up): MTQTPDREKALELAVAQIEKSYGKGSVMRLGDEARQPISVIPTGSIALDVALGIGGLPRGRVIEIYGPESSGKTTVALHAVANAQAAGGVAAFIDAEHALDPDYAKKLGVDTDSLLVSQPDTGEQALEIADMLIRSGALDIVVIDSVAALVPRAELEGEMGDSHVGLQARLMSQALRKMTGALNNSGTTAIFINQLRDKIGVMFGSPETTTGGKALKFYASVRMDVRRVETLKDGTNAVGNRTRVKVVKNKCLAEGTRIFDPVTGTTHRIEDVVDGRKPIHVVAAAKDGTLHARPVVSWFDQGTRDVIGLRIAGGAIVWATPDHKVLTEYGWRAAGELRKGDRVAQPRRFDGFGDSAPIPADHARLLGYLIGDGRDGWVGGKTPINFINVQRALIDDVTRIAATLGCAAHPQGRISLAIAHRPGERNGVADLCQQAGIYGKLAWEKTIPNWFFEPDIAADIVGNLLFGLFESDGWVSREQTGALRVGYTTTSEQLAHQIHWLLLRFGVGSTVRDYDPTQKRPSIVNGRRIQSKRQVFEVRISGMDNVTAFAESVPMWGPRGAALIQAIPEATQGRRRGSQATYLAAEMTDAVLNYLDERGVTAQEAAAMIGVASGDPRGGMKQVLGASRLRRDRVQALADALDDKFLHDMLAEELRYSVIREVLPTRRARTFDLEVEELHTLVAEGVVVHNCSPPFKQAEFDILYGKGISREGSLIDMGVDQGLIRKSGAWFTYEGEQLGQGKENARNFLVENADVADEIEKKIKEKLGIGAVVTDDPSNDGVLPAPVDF
Arbovirus anti repeat – further read-out of Arbovirus anti, marked with its call; inhibition, %; measured here: 10K subset replicate screen; many hits read low in the repeat;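 first of two repeat runs on a subset; 0% = infected and 100% = uninfected wells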
Numbers without * were called inactive; ? = inconclusive; nt = no result given; & = joins results of further samples.

SMILES | YopH PTP inh | Mtb growth | Arbovirus anti | Mtb bLac sens | RecA intein inh | others
COc1ccc(S(=O)(=O)CCC(=O)N2c3ccccc3CC2C)cc1 (centres undefined) | 0 | 9% | 3 | 3 | 3.7
COc1ccc(OC)c(S(=O)(=O)N2CCC(C(=O)N3CCN(Cc4ccccc4)CC3)CC2)c1 | 0 | -3% | 8 | -14 | -0.5
CN(C)c1ccc(/C=C2/C(=O)NC(=O)N(Cc3ccco3)C2=O)cc1 | -7 | nt | 3 | 5 | 3.4
COC(=O)c1ccc(S(=O)(=O)c2ccccc2)c(N)c1 | -8 | 5% | 3 | 0 | -2.2
O=C(CN1C(=O)NC2(CCCC2)C1=O)Nc1nc2ccccc2s1 | nt | nt | nt | -8 | 2.6
Cc1cccc(-n2c(SCC(N)=O)nnc2-c2ccccn2)c1C | -11 | -3% | 3 | -4 | -0.2
CC(=O)n1cc([C@H]2C=C(C(=O)N3CCN(Cc4ccc5c(c4)OCO5)CC3)O[C@@H](OCc3ccc(CO)cc3)C2)c2ccccc21 | nt | -3% | -8 | 80 | -1.7
O=C(CSc1ncn[nH]1)NCCc1ccc(Cl)cc1 | nt | nt | nt | 5 | 2.3
COC(=O)c1cc(NC(=O)Nc2ccccc2)ccc1Cl | -32 | -1% | 9 | 2 | 1.1
Cc1cc(N2CCN(S(=O)(=O)c3ccc4c(c3)OCCO4)CC2)n2ncnc2n1 | -54 | 5% | 7 | -12 | nt
Cc1cc(C)nc(NC(=O)c2cc(Br)ccc2Cl)n1 | nt | -2% | 15 | 2 | 2.2
COc1ccccc1C1CN(c2ccccc2)N=C1c1cccs1 (centres undefined) | -33 | 1% | 11 | 3 | -12
CCOc1ccc(-c2n[nH]c(=S)n2/N=C/c2cc3c(cc2[N+](=O)[O-])OCO3)cc1 | -23 | -1% | -1 | ? | -0.1
COc1ccc(OC)c(NC(=O)CN(Cc2ccc(Cl)cc2)S(C)(=O)=O)c1 | nt | 1% | 1 | -12 | 2.9
O=C(CON=C1c2ccccc2-c2ccccc21)NC12CC3CC(CC(C3)C1)C2 | 6 | 50% | -25 | 47 | 12
CCOC(=O)c1c2n(c3ccc(O)cc13)CCCCC2 | -22 | 9% | 1 | 32 | -4.4
COc1ccc(CNc2nc(SC)n[nH]2)cc1OC | -31 | -2% | 1 | 3 | 1.2
Cn1c(O)c(C(c2ccccn2)c2c(O)n(C)c(=S)[nH]c2=O)c(=O)[nH]c1=S | -36 | nt | 8 | 9 | -1.6
Cc1cnc(NC(=O)CSc2nnc(-c3ccncc3)n2C2CCCCC2)s1 | -38 | -2% | 1 | -7 | -1.9
Cc1cccc(C(C)C)c1NC(=O)C(C)OC(=O)Cn1cnc2c1c(=O)n(C)c(=O)n2C (centres undefined) | nt | nt | nt | 0 | -2.7
Cc1csc(Nc2ccc(C(=O)O)cc2)n1 | nt | 3% | nt | -7 | -0.6
CC(=O)N1C(=O)C2(C(C#N)=C(N)Oc3c2c(C)nn3-c2ccccc2)c2ccccc21 (centres undefined) | -23 | -13% | -7 | 0 | 55*
COc1ccccc1NC(=O)NCCCCc1ccccc1 | nt | nt | nt | -6 | 0.6
CCOc1ccc(C(=O)Nc2ccc(N3CCN(C)CC3)cc2)cc1 | nt | nt | nt | 4 | 0.1
COc1ccccc1-c1c(C)nn2c(C)c(C(C)=O)cnc12 | 36 | 3% | 0 | 3 | -6.0

The closing two records of the part before open the next one:
SMILES | YopH PTP inh | Mtb growth | Arbovirus anti | Mtb bLac sens | RecA intein inh | others
CCOc1ccc(C(=O)Nc2ccc(N3CCN(C)CC3)cc2)cc1 | nt | nt | nt | 4 | 0.1
COc1ccccc1-c1c(C)nn2c(C)c(C(C)=O)cnc12 | 36 | 3% | 0 | 3 | -6.0
Cc1nnc(SCC(=O)Nc2nonc2C)s1 | nt | nt | nt | 0 | -2.3
O=C(Nc1nccs1)c1ccc(S(=O)(=O)NCC2CCCCC2)cc1 | -50 | -4% | 5 | -4 | -1.5
CCc1nnc(NC(=O)c2cccc(S(=O)(=O)N3CCN(c4ccccc4)CC3)c2)s1 | -31 | -4% | -1 | -5 | -1.1
CC(C)C1CCC(C(=O)N[C@H](Cc2ccccc2)C(=O)O)CC1 (some centres undefined) | nt | -13%&-2% | -1 | -2 | 0.5
O=C(c1nc2ccc(Cl)cn2c1CNCCn1ccnc1)N1CCCCCCC1 | nt | -4% | 3 | 8 | 0.5
O=C(Nc1ccccc1N1CCCC1)c1ccco1 | 9 | 1% | 5 | -10 | nt
O=C(CSCC(=O)Nc1nc(-c2ccc3c(c2)OCO3)cs1)Nc1nccs1 | nt | 3% | -7 | 0 | -2.5
Cc1c(NC(=O)COC(=O)/C=C/c2ccc(Cl)cc2)c(=O)n(-c2ccccc2)n1C | nt | -15% | 5 | -3 | -3.2
O=C(NC1CC(=O)N(c2ccccc2)C1)C1CC1 (centres undefined) | nt | nt | nt | -4 | -0.2
Cc1ccc(-c2cn(S(=O)(=O)c3ccc(C)cc3)nc2N)cc1 | -12 | 1% | -10 | 2 | -0.9
O=C(NCc1cccnc1)c1ccc(NC(=O)c2ccc([N+](=O)[O-])cc2)cc1 | nt | nt | nt | 4 | 0.3
CCN(CC)CCN(C(=O)/C=C/c1cccs1)c1nc2ccc(F)cc2s1 | nt | nt | nt | 7 | 4.0
O=C1c2ccccc2C(=O)N1c1cccc2cccnc12 | -10 | -10% | 9 | 7 | 4.0
CC(C)(C)Nc1nc(NN)nc(NC(C)(C)C)n1 | -35 | -3% | -15 | 27 | 6.6
O=C(CSc1nnc(CNC(=O)c2cccs2)o1)NCC1CCCO1 (centres undefined) | nt | 2% | 6 | 1 | 0.1
COC(=O)CN(C)C(=O)CC1C(=O)NCCN1CC(C)(C)C (centres undefined) | nt | -2% | 2 | -12 | -2.3
CCCCc1ccc(NC(=O)CC(C)=O)cc1 | -31 | 78% | 1 | 79 | nt
Nn1c(-c2ccc(F)cc2)nc2ccccc2c1=O | nt | nt | nt | 5 | 1.1
N#Cc1c(-c2ccccc2)ccnc1Oc1ccccc1 | 5 | 8% | -8 | -5 | -5.6
Cc1cc(NC(=O)COC(=O)C2CC(=O)N(c3cccc(Cl)c3)C2)no1 (centres undefined) | nt | nt | nt | -6 | -0.1
CCOc1ccc(-n2c(=S)sc3c(=O)[nH]c(SCC(=O)N4CCC(C)CC4)nc32)cc1 | -21 | 1% | -1 | -2 | 3.0
CCOc1cc(S(=O)(=O)Nc2ccc(Cl)cn2)ccc1Cl | -21 | -4% | -5 | 5 | -0.3
Nc1c(C(=O)Nc2ccc3c(c2)OCCO3)nnn1Cc1cccc(Br)c1 | nt | nt | nt | 10 | 2.5
O=C(CN1CCN(Cc2ccc(F)cc2)CC1)NCc1ccccc1 | nt | nt | nt | -7 | -2.7
O=C(CN1CCN(c2ncccn2)CC1)N(Cc1ccccc1)c1ccc(F)cc1 | -32 | 5% | 0 | 0 | 4.7
(listing goes on)
SMILES | YopH PTP inh | Mtb growth | Arbovirus anti | Mtb bLac sens | RecA intein inh | others
CCN(CC)c1ccc(NC(=O)c2ccc(=O)[nH]c2)cc1S(=O)(=O)Nc1ccc(OC)cc1 | nt | nt | nt | -13 | 4.4
N=C1C(c2ccccc2)=C(O)C2CCc3ccccc3N12 (centres undefined) | -26 | -7% | -1 | -4 | -0.3
O=C(CCN1CCOCC1)NNC(=O)/C(=C/c1ccccc1)NC(=O)c1ccccc1 | nt | 2% | 22 | 8 | -0.1
CCOC(=O)C1CCCN(C(=O)N2CCOCC2)C1 (centres undefined) | -31 | -1% | 0 | -6 | -1.0 | Arbovirus anti repeat=-4
Cc1ccc(C(=O)NC(=S)NNS(=O)(=O)c2ccccc2)cc1 | nt | 2% | -8 | -10 | 8.8
Cc1cc(-n2nc(C)cc2C)nc(NS(=O)(=O)c2ccccc2Cl)n1 | -38 | 1% | 18 | 3 | 1.3
CCN(CC)S(=O)(=O)c1cccc(NC(=O)CN(C)C2CCCCC2)c1 | nt | -5% | 3 | -5 | 4.7
Cc1cccc(/C=N/n2c(-c3ccccn3)n[nH]c2=S)c1 | -4 | -7% | -3 | 1 | 1.7
Cc1ccc(NC(=O)C(C)N2C(=O)c3ccccc3C2=O)c(C)c1 (centres undefined) | nt | nt | nt | 0 | 1.5
COc1ccc(CN2CCNC(=O)C2CC(=O)NCc2csc(C)n2)c(F)c1 (centres undefined) | nt | nt | nt | -8 | 1.1
COCCn1c(=S)[nH]c2cc(C(=O)N3CCC(C(N)=O)(N4CCCCC4)CC3)ccc2c1=O | -27 | 5% | 2 | -3 | nt
CC(=O)N1N=C(c2cccnc2)CC1c1ccccc1O (centres undefined) | nt | 2% | -3 | 4 | 2.2
COc1cccc(C(=O)N2CCCc3ccccc32)c1 | -44 | -1% | -2 | -17 | -0.6
COc1ccc(C(C)(C)C)cc1NC(=O)c1cc(S(=O)(=O)N(C)C)ccc1N1CCCC1 | -39 | 3% | -5 | 8 | 8.7
OC(COC(c1ccc(F)cc1)c1ccc(F)cc1)CN1CCc2ccccc2C1 (centres undefined) | 17 | 11% | -24 | 14 | 4.5
O=C(COC(=O)C(O)c1ccccc1)c1ccc2c(c1)OCCO2 (centres undefined) | 8 | -7% | 8 | -5 | 3.7 | Arbovirus anti repeat=6
CCOc1cc(C(=O)Nc2ccc3c(c2)OCO3)ccc1OC(F)F | 1 | 4% | -14 | 2 | 0.8
CCCNC(=O)COC(=O)C1CCN(S(=O)(=O)c2ccc3c(c2)OCCO3)CC1 | nt | nt | nt | -2 | 1.7
Cc1ccc(-c2cc(C(F)F)nc(S(C)(=O)=O)n2)cc1 | nt | 70% | -39 | 99 | 46*
O=C(CCCC(=O)OCC(=O)c1ccc(Cl)cc1Cl)Nc1cc(C(F)(F)F)ccc1Cl | -23 | -10% | 6 | 1 | -0.3
CCOC(=O)C1C(=O)NC(N2CCN(CC)CC2)=NC1c1ccccc1 (centres undefined) | -15 | -3% | 3 | -8 | 1.5
COc1ccc2c(/C=C/c3cc[n+](C)cc3)c[nH]c2c1 | nt | nt | nt | 4 | 4.9
Cc1cc(C)nc(NC2=NCC(=O)N2c2ccc(Cl)cc2)n1 | -2 | nt | 4 | 12 | nt
COc1cccc2cc(C(=O)C3=C(O)C(=O)N(CCN(C)C)C3c3ccc(Cl)cc3)oc12 (centres undefined) | nt | -5% | nt | 1 | -0.7
NNC(=O)COc1cccc(Oc2ccccc2)c1 | nt | 0% | -11 | 3 | 0.7

Gathered by group, those above with a furan ring, fused or not
SMILES | YopH PTP inh | Mtb growth | Arbovirus anti | Mtb bLac sens | RecA intein inh | others
CN(C)c1ccc(/C=C2/C(=O)NC(=O)N(Cc3ccco3)C2=O)cc1 | -7 | nt | 3 | 5 | 3.4
O=C(Nc1ccccc1N1CCCC1)c1ccco1 | 9 | 1% | 5 | -10 | nt
COc1cccc2cc(C(=O)C3=C(O)C(=O)N(CCN(C)C)C3c3ccc(Cl)cc3)oc12 (centres undefined) | nt | -5% | nt | 1 | -0.7

Structures shown so far with a thiophene ring, fused or not, in the order listed:
SMILES | YopH PTP inh | Mtb growth | Arbovirus anti | Mtb bLac sens | RecA intein inh | others
COc1ccccc1C1CN(c2ccccc2)N=C1c1cccs1 (centres undefined) | -33 | 1% | 11 | 3 | -12
CCN(CC)CCN(C(=O)/C=C/c1cccs1)c1nc2ccc(F)cc2s1 | nt | nt | nt | 7 | 4.0
O=C(CSc1nnc(CNC(=O)c2cccs2)o1)NCC1CCCO1 (centres undefined) | nt | 2% | 6 | 1 | 0.1

Next part
SMILES | YopH PTP inh | Mtb growth | Arbovirus anti | Mtb bLac sens | RecA intein inh | others
C=C1CCN([C@H](C(=O)NCc2ccccc2)C(C)C)S(=O)(=O)c2ccccc21 | nt | -6% | nt | -18 | -10.0
CCCC(=O)N1CCN(c2ccc(NC(=O)c3cc4ccccc4o3)cc2)CC1 | -16 | 5% | -2 | 4 | nt
CSc1ccc(C(=S)N2CCN(CCO)CC2)cc1 | -24 | -3% | 0 | 6 | -0.7
O=C(c1ccco1)N1CCN(Cc2cn[nH]c2-c2cccc3ccccc23)CC1 | nt | -2% | nt | -13 | 2.4
Cc1cc(C)c(C(=O)/C=C/c2cccs2)c(=O)[nH]1 | nt | 0% | 8 | 2 | -1.4
CCOc1ccc(N2C(=O)/C(=C/c3ccc(C)o3)N(C)C2=S)cc1 | 11 | ? | -7 | -2 | -1.8
CC(NC(=O)Nc1ccc(O)cc1)(C(F)(F)F)C(F)(F)F | -18 | 6% | -26 | -11 | -6.3
O=C(N1CCOCC1)N1CCN(CC(O)COc2ccc3ccccc3c2)CC1 (centres undefined) | -16 | 5% | 7 | -5 | -4.5
CC(C)CCN1CCN(Cc2nc(-c3ccc(F)cc3)cs2)CC1CCO (centres undefined) | nt | 6% | -2 | 7 | -2.3
CCOc1ccc(-n2ccc(=O)c(C(=O)Nc3ccc(S(=O)(=O)N4CCOCC4)cc3)n2)cc1 | nt | nt | nt | 10 | -0.4
Cc1nnc(SCC(=O)NNC(=O)c2ccc(Cl)cc2)n1CC1CCCO1 (centres undefined) | nt | -4% | -2 | -7 | -1.4

Some of the compounds tested (hit frequency here may not be typical).
